Screening data as filed in PubChem.
miR-21 reporter – qHTS Assay for Modulators of miRNAs and/orActivators of miR-21 | HeLa miR-21 FLuc reporter, luciferase, 48 h | Potency, µM (series often up to 38.3 µM), without a hit: at the highest dose reporter change, positive = more light | 340,000 tested, under 10 active; active = well fitted rising curve with a large enough effect; inconclusive = small, poorly fitted or top-dose-only effect; inactive = no such curve, though single readings can be large or run the other way;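 further: % of control where 0% means no effect; miR-21 action dims this reporter so a rising signal means less miR-21 action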
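HeLa cells endogenously expressing miR-21, stably carrying CMV-driven firefly luciferase with a downstream miR-21 binding site, 2000 cells/well. Titrations up to approximately 40 uM, 48 hours; luciferase luminescence read.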
Active calls of the source: *; ? = inconclusive. The list is partial (hit frequency here may not be typical).

structure	miR-21 reporter
CCCN(CCC)C(=O)Cn1c(SCc2cccc(F)c2)nc2cccnc21	-9.0%
Cc1ccc(NS(=O)(=O)c2ccc(-c3cnc(C4CC4)o3)cc2)cc1N(C)C	?
CC(C)CCNC(=O)CCn1c(=O)c2cccn2c2cccnc21	2.0%
O=C(NC1CCCCCC1)c1ccc(CS(=O)c2ccc(Br)cc2)o1 (stereo not given)	12.2%
CC(=O)c1cccc(NC(=O)C(CC(C)C)NS(=O)(=O)c2ccc3c(c2)CCN3C(C)=O)c1 (stereo not given)	-4.2%
Cc1cccc(CSc2nc3ccncc3n2CC(=O)N(C)C2CCCCC2)c1	-0.8%
COc1ccc(OC)c(NS(=O)(=O)c2ccc(-c3cc(C)no3)s2)c1	25.4%
CC(=O)N1CCC2(CC1)OC(=O)C(C)=C2C(=O)Nc1ccccc1C(F)(F)F	-1.0%
Cc1ccc2c(CC(=O)Nc3cccc(C(F)(F)F)c3)coc2c1	1.7%
CCC(=O)Oc1ccc(/C=C(\C#N)c2nc3ccccc3[nH]2)cc1OC	-28.0%
Cc1cccc(Cn2c(CNS(=O)(=O)c3ccc(Cl)s3)nc3cccnc32)c1	-0.1%
O=C(Nc1ccc2oc(-c3cccnc3)nc2c1)c1ccc(Br)cc1	-6.4%
COc1ccc(C)cc1NC(=O)NCc1cccn1Cc1ccccc1	-0.3%
Cc1ccc(-n2c(Cc3ccccc3)nnc2SCc2nc(-c3cccs3)no2)cc1	-0.4%
CC(=O)Nc1ccc(NC(=O)CCc2c(C)nc3c(c(C)nn3-c3ccccc3)c2C)cc1	-6.9%
CN(C)c1ccc(Nc2nc3ccccc3n3nnnc23)cc1	18.6%
COc1ccc(NC(=O)c2ccc(-c3nc(CSc4ccccc4)c(C)o3)cc2)cc1OC	17.4%
CC(=O)N1CCN(c2nc3c(F)cc(F)cc3s2)CC1	-5.7%
CCOC(=O)C1=C(CS(=O)(=O)c2ccc(C)c(C)c2)NC(=O)NC1c1ccccc1OCC (stereo not given)	?
CCCCN(CC)c1nc(-c2ccccc2F)nc2ccccc12	-0.5%
COc1ccc(-n2nnc(-c3nc(-c4ccc5c(c4)OCO5)no3)c2C)cc1Cl	-2.0%
CCOC(=O)c1c(S(=O)(=O)NCC(=O)Nc2ccc(C)c(N(C)C)c2)c(C)n(C)c1C	-3.8%
COc1ccc(S(=O)(=O)NCCc2csc3nc(-c4cccc(C)c4)nn23)cc1F	19.9%
Cc1nc2c(C(=O)NCCc3ccc(Cl)cc3)cnn2c(C)c1Cc1c(F)cccc1Cl	-1.1%
Clc1cccc(-c2nc3ccccn3c2Nc2ccc3c(c2)OCCO3)c1	-11.0%
CCOC(=O)c1ccccc1NC(=O)c1c(-c2ccccc2)noc1C	18.8%
O=C(C1CCCCC1)N(Cc1cccnc1)c1nc2c(F)cccc2s1	-2.1%
CCOC(=O)CNC(=O)N1[C@H](c2cccs2)[C@@H](C)C(=O)[C@@H](C)[C@@H]1c1cccs1	-5.9%
O=C(CCc1nc(CN2CCN(S(=O)(=O)c3ccc(F)cc3)CC2)no1)N1CCCCC1	0.3%
CCOc1ccc(C(=O)Nc2c(C(=O)c3ccccc3)oc3ccccc23)cc1	-4.7%

Reformatted as labelled records: 2 of the compounds above.
CCOC(=O)C1=C(CS(=O)(=O)c2ccc(C)c(C)c2)NC(=O)NC1c1ccccc1OCC (stereo not given)
- miR-21 reporter: ?

COc1ccc(C)cc1NC(=O)NCc1cccn1Cc1ccccc1
- miR-21 reporter: -0.3%

New compounds follow:
structure	miR-21 reporter
COc1ccccc1-c1ccnc2c(-c3ccc(Br)cc3)c(C)nn12	-11.2%
O=C(CCSCc1ccc(Cl)cc1)N1CCN(c2ccccc2F)CC1	?
COCCCNC(=O)c1cnc2c(-c3ccc(F)cc3)c(C)nn2c1C	-2.2%
COc1ccc(C)cc1NC1(c2ccccc2)C(=O)c2ccccc2C1=O	-5.4%
CCCN1CCN(c2ncnc3sc(C(=O)Nc4ccc(C(C)C)cc4)c(C)c23)CC1	-7.5%
O=C(Nc1ccccc1C(=O)N1CCCCC1)c1nsc2ccccc12	-1.7%
COC(=O)c1sc(-c2ccccc2)cc1NC(=O)Nc1ccc(Cl)cc1	6.0%
Cc1ccc2[nH]c(=O)c3cc(C(=O)N(C)c4ccc(Br)cc4)sc3c2c1	-5.3%
N#Cc1ccccc1CSc1nnc(-c2ccccc2)o1	-40.8%
COc1ccc(-c2nc3ccccc3n3c(-c4ccc(OC)cc4)c4c(=O)n(C)c(=O)n(C)c4c23)cc1	-2.5%
Cc1ccc(NC(=O)Cn2cc3c(n2)CCCC3)cc1Cl	-6.8%
COc1ccccc1NC(=O)Cn1c(=O)c(CNc2ccc(C)cc2)cc2cc3c(cc21)OCCO3	-9.7%
Cc1c(-c2nnc(SCC(=O)Nc3ccc(Br)cc3)o2)nnn1-c1ccc(F)cc1	-12.6%
CC(CCc1ccccc1)NC(=O)Cn1c(=O)nc(-c2ccccc2F)c2cc(Cl)ccc21 (stereo not given)	17.1%
Cc1ccc(C(=O)/C=C/c2cn(CC(O)CN3CCc4ccccc43)c3ccccc23)cc1 (stereo not given)	10.1%
CCCN1CCN(c2cc3c(cc2F)c(=O)c(S(=O)(=O)c2ccc(CC)cc2)cn3CC)CC1	-18.1%
CCc1ccc(NC(=O)C(NS(=O)(=O)c2cccs2)C(C)C)cc1 (stereo not given)	4.6%
COc1ccc(-c2cn3nc(SCC(=O)Nc4cccc(C)c4C)ccc3n2)cc1	-44.9%
Cc1ccc(C)c(Cn2c3ccccc3c3cnn(CC(=O)NCC(C)c4ccccc4)c(=O)c32)c1 (stereo not given)	-0.1%
O=C(COc1ccc(F)cc1)Nc1ccc2nc(SCC(=O)N3CCOCC3)sc2c1	?
COc1ccc(N2CCN(Cc3nc4c(c(=O)n(C)c(=O)n4C)n3C(C)C)CC2)cc1	2.9%
COc1ccc(CCNc2ncnc3c2c(-c2ccccc2)cn3-c2ccc(F)cc2)cc1OC	17.3%
CC(C)c1ccc(NC(=O)CN2C(=O)COc3ccc(S(=O)(=O)Nc4ccccc4)cc32)cc1	-6.0%
CCn1c(=O)c2sccc2n2c(CCCC(=O)N3CCN(c4ccccc4OC)CC3)nnc12	-1.6%
COc1ccc(-c2cc(C(C)=O)c(C)n2CCC(=O)Nc2cc(C)ccc2OC)cc1	12.9%
CC1CCc2c(sc(NC(=O)COc3ccccc3)c2C(=O)Nc2ccccc2Cl)C1 (stereo not given)	-5.0%
CCCCOC(=O)c1ccc(Nc2ncnc3c2cnn3-c2cccc(C)c2)cc1	-4.6%
Cc1ccc(NC(=O)C(Cc2ccccc2)NS(=O)(=O)c2cccs2)cc1Cl (stereo not given)	3.3%
COc1ccccc1CNC(=O)CCCCn1c(=O)c2ccccc2n(CC(=O)Nc2cccc(Cl)c2)c1=O	1.1%
Cc1ccc(-c2csc(-c3nc(-c4ccc(Br)s4)cs3)n2)cc1	0.5%

Gathered by group: those above with a CF3 group
structure	miR-21 reporter
CC(=O)N1CCC2(CC1)OC(=O)C(C)=C2C(=O)Nc1ccccc1C(F)(F)F	-1.0%
Cc1ccc2c(CC(=O)Nc3cccc(C(F)(F)F)c3)coc2c1	1.7%

(cont.)
structure	miR-21 reporter
COc1cccc(NC(=O)c2oc3ccccc3c2NC(=O)C23CC4CC(CC(C4)C2)C3)c1	3.2%
Cc1ccc(CSc2nc(-c3cccs3)ccc2C#N)cc1	-19.4%
CC(C)CN1CCc2nc(N3CCN(c4ncccn4)CC3)ncc2C1	-29.3%
COc1ccc(CCC(=O)NCc2nc3cccnc3n2Cc2cccc(OC)c2)cc1	-1.4%
COc1ccccc1NC(=O)CSc1nnc(N)s1	-5.3%
CCc1ccc2occ(CC(=O)Nc3c(C(=O)c4ccc(F)cc4)oc4ccccc34)c2c1	0.3%
CC1CCCN(C(=O)Cn2ncc3c([nH]c4ccccc43)c2=O)C1 (stereo not given)	3.4%
Cc1ccc(NC(=O)Cn2c(=O)n(Cc3ccco3)c(=O)c3sc4ccccc4c32)cc1C	-8.8%
CCc1ccccc1NC(=O)Cn1ccn(Cc2ccccc2)c(=O)c1=O	?
Cc1cc(C)cc(OC(=O)c2snnc2C)c1	1.1%
Cc1cc(Nc2cccc(F)c2)n2nc(-c3ccco3)nc2n1	0.8%
Cc1ccc(NC(=O)Nc2cn(CC(C)C)c(=O)c3ccccc23)cc1N(C)C	-2.5%
COC(=O)c1c(NC(=O)Cc2coc3ccc(C(C)C)cc23)sc2c1CCC2	-15.0%
COc1cccc(C(=O)NCCSc2c(-c3ccc(F)cc3)[nH]c3ccccc23)c1OC	?
CCCN1C(=O)C2(c3ccccc31)c1c(oc3cc(C)c(C)cc3c1=O)C(=O)N2CCCOC (stereo not given)	-3.2%
Cc1ccc2ncc(C(=O)NCCc3ccc(S(N)(=O)=O)cc3)c(=O)n2c1	-1.8%
O=C(CSc1ncc2c(n1)-c1ccccc1N(Cc1ccc(F)cc1)S2(=O)=O)c1ccc(Cl)cc1	-0.7%
Cc1cc(O)c2c(C)c(CC(=O)N3CCCCC3)c(=O)oc2c1	-4.0%
COc1ccc(OC)c(CNC(=O)Cn2ncc3c([nH]c4ccc(C)cc43)c2=O)c1	-0.7%
Cc1cc(Nc2ccccc2F)n2nc(-c3ccccc3)nc2n1	1.9%
COc1cccc(CNC(=O)Cc2c(C)c3c(cc(C)c4c(C)coc43)oc2=O)c1	-0.9%
Cc1ccccc1NC(=O)CS(=O)(=O)c1cccc2nsnc12	5.2%
Cc1ccc(C(=O)Nc2cc(-c3nc4ncccc4o3)ccc2C)c(C)c1	-2.8%
Cc1ccc2[nH]c(CSc3nnc(COc4ccccc4C)n3C)cc(=O)c2c1	6.4%
CCN1CCN(C(=O)c2cnn(-c3cccc(C)c3)c2C2CCN(C(=O)OC(C)(C)C)CC2)CC1	-1.0%
Cc1ccc(NC(=O)Cn2c(=O)oc3cc(S(=O)(=O)N4CCCCC4)ccc32)c(Cl)c1	15.5%
COc1ccc(NC(=O)CCCSc2nc(-c3ccco3)cc(C(F)(F)F)n2)c(OC)c1	-1.6%
COc1ccc(-c2nc(C(=O)Nc3cccc(C(C)=O)c3)nn2-c2ccccc2Cl)cc1	8.4%
Cc1c(C(=O)Oc2ccc(Br)cc2)sc2ncn(Cc3ccccc3F)c(=O)c12	-0.4%
CCN(C(=O)C(NS(=O)(=O)c1ccc(Br)s1)c1ccccc1)c1ccc(C)c(C)c1 (stereo not given)	?
Cc1ccc(NC(=O)N2CCN(C)c3ncccc32)cc1C	3.2%
COc1ccccc1C(=O)Nc1ccc(C(=O)OCc2cc(=O)n3nc(C4CC4)sc3n2)cc1	-3.2%
COc1cc(NC(=O)C2CCCN(S(=O)(=O)c3ccc4c(c3)oc(=O)n4C)C2)c(C(=O)O)cc1OC (stereo not given)	-0.2%
O=C1C2=C(Nc3ccccc3SC2c2ccccc2C(F)(F)F)c2ccccc21 (stereo not given)	?
COc1cc(Cl)c(C)cc1NC(=O)CCCN1C(=O)C(c2ccccc2)Oc2cccnc21 (stereo not given)	9.4%
Cc1c(-c2cccc(NC(=O)Nc3ccc(Cl)cc3)c2)nc2ncccn12	16.4%
COc1ccccc1CNC(=O)c1ccc2c(c1)N(Cc1cccc(C)c1)C(=O)c1ccccc1S2(=O)=O	-1.5%
CCN(CC)CCNC(=O)c1ccc2c(c1)NC(=O)C(CS(=O)(=O)Cc1ccc(F)cc1Cl)N2 (stereo not given)	1.3%
COc1ccc2c(c1)CCc1c(C(=O)Nc3c(C)nn(Cc4ccc(C)cc4)c3C)noc1-2	?
Cc1ccc(CNC(=O)CSc2ncc3c(n2)-c2cc(Cl)ccc2N(C)S3(=O)=O)cc1	-2.6%
O=S(=O)(c1ccc2nc(Nc3cccc(F)c3)ccc2c1)N1CCCC1	1.1%
COc1ccccc1NC(=O)Cn1c(=O)n(-c2ccccc2Cl)c(=O)c2sc3ccccc3c21	6.6%
COc1ccc(CCNC(=O)Cn2nc(-c3ccc(Cl)cc3)ccc2=O)cc1OC	0.7%
CCCN(C(=O)c1cc2ccc3cccnc3c2[nH]1)c1ccc(F)cc1	-27.9%
CCOCCc1nn2c(=O)cc(COC(=O)CNC(=O)c3cccc(C)c3)nc2s1	0.9%
COc1ccccc1NC(=O)c1c(NC(=O)c2cccs2)sc2c1CCC(C(C)(C)C)C2 (stereo not given)	0.4%
COc1cc(-c2noc(-c3ccc(NCc4cccnc4)c([N+](=O)[O-])c3)n2)cc(OC)c1OC	29.8%
CCCN(CCC)C(=O)Cn1c(=O)n(-c2cccc(C(F)(F)F)c2)c(=O)c2c(C)c(C)sc21	-1.7%
CCc1ccc(NC(=O)C2CCN(S(=O)(=O)c3c(C)noc3/C=C/c3cccs3)CC2)cc1	3.0%
CCOC(=O)Cn1nc(-c2ccccc2)c2cnc3ccc(OCC)cc3c21	-8.2%
CCCSCCCNC(=O)c1ccc2c(c1)nc1n2CCCCC1	-27.7%
Cc1cccc(OC(=O)c2cc(-c3ccc4c(c3)OCCO4)on2)c1	16.5%
O=C(Nc1c(C(=O)N2CCN(c3ccccc3F)CC2)oc2ccccc12)c1cccc(F)c1	-1.0%
CC(C)(C)OC(=O)N1CCC(c2c(C(=O)NCCN3CCC(Cc4ccccc4)CC3)cnn2-c2ccccc2)CC1	?
CCOC(=O)c1ccc(N2C(=O)c3n[nH]c(-c4ccco4)c3C2c2ccc(F)cc2)cc1 (stereo not given)	?
O=C(Nc1ccc(Br)cc1F)c1cc(S(=O)(=O)NC2CCCCC2)ccc1F	9.4%
